PINK1 modulator: PINK1 expression modulation. Potency, µM (top dose mostly 76.6 µM), inactives show at the highest dose activation (PINK1 increase), hits mostly activators. 410,000 compounds, 0.2% hits. PINK1 immunofluorescence, high-content cytometry, 24 h. AID 624263; active = well fitted activation curve with a large enough effect; inconclusive = small, poorly fitted or top-dose-only effect; inactive = flat fitted curve, though single readings scatter; cell line not stated here;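 also: potency is read from the fitted curve at half-maximal effect; % of control where 0% means no effect; nearly all actives have a fitted effect of over 65% in size; a mitochondrial uncoupler was the plate control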
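Decision-based qHTS: stable cells, 24 h exposure to five compound concentrations, CCCP as control. Fixed cells stained for PINK1 plus nuclear, mitochondrial and cell markers, cytometer read.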
Sfp PPTase inh: inhibitors of Bacillus subtilis Sfp phosphopantetheinyl transferase; Q9F4F7; Biochemical Sfp PPTase activity, qHTS; Potency, µM, inactives show max response, negative = inhibition, hits mostly inhibitors; 310,000 compounds, 3.5% hits; AID 1490; active = well fitted inhibition curve with a large enough effect; inconclusive = small, poorly fitted or top-dose-only effect, or another doubt; inactive = no such curve, though single readings can be large or run the other way;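 also: the enzyme is Sfp with the accession as filed and its product quenches rhodamine fluorescence; potency is read from the fitted curve at half-maximal effect; 0% = enzyme reaction without inhibitor and -100% = no enzyme wells; top concentration of the series not given in the record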
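Fluorescence-quenching assay: 15 nM Sfp-PPTase preincubated 15 min at room temperature with compound, then 5 uM rhodamine-CoA and 12.5 uM BHQ-2-labelled YbbR peptide added. Fluorescence (ex 525/em 598 nm) read at start and after 30 min; difference gives rate.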
Menin MLL FP FL: displaces fluorescein MLL peptide from human menin; 290,000 tested, under 10 active; FP activity change, % at 61.4 µM; Fluorescence polarization, fluorescein-MLL peptide displacement from menin; AID 1766; inconclusive = falling polarisation curve, or a change in total fluorescence; inactive = total fluorescence flat and polarisation flat or rising; no compound was filed as active; the % refers to the polarisation; negative = inhibition;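 also: % of control where 0% means no effect; inhibitors lower the polarisation; unlabelled MLL peptide was the positive control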
TRPML1 agonist: activates the human TRPML1 channel; activation, % (concentration not given with the values); TRPML1-expressing cells, Ca2+ dye fluorescence, FDSS; host cell line not named in the record; reference of the full effect not given here; 410,000 compounds, 0.12% hits; Q9GZU1; AID 624414; in the data active = activation above about 50%; inconclusive = about 30% to 50%; inactive = below about 30%; also: 0% is about no effect; the text of the record puts the active cut at 80%
Target sequence (Q9GZU1 whole entry, looked up): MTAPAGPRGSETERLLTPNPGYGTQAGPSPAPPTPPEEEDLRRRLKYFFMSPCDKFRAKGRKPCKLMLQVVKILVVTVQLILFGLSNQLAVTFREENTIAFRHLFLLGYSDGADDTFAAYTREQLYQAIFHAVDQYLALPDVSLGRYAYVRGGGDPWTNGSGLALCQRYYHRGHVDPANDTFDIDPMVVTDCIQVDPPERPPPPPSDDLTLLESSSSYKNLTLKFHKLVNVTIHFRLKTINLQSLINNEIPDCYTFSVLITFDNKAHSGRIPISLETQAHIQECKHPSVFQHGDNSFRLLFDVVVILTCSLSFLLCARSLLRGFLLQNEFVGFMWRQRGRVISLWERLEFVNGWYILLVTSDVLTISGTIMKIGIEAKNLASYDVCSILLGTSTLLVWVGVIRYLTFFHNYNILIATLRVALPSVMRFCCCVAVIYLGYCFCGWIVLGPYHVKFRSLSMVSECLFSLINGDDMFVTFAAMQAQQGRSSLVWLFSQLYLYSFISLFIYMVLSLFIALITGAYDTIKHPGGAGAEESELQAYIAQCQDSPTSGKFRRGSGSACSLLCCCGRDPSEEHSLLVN
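Kinetic FDSS Ca2+ read in Tet-induced TRPML1-DL cells (ABD Ca8 dye plus quencher, 45-90 min RT loading): baseline, then compound, then 110 s agonist window; EC80 agonist 54-4 at 4uM final added afterwards for a 110 s antagonist window.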
TRPV1 PAM: human TRPV1 potentiation; Q8NER1; TRPV1-expressing cells, Fluo-8 calcium influx, capsaicin EC20 potentiation; host cell line not named in the record; control for the full effect not named in the record; potentiation, % at 8.33 µM; 320,000 compounds, 0.02% hits; AID 540277; active means potentiation above 80%; inconclusive means 30% to 80%; inactive means below 30%; also: 0% is about no effect
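TRPV1-expressing cells were cultured overnight at 35.5C and loaded with Fluo-8 calcium dye for 40 to 90 min at room temperature. After a 10 s baseline, compound was added and calcium influx was read kinetically for 3 min (ex 480/em 520 nm).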
TRPML1 blocker: blocks the human TRPML1 channel; TRPML1-inducible cells, Ca2+ dye fluorescence, FDSS; hits give low values; inhibition of EC80 agonist-evoked calcium signal; activity change, negative = inhibition, % (no concentration beside the values); 390,000 compounds, 0.02% hits; AID 624415; in the data active means activity change below about -50%; inconclusive means about -30% to -50%; inactive means above about -30%;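 also: stimulus is agonist 54-4 at its EC80 concentration; % is scaled to controls: 0 for no effect and ±100 for the full control effect; compound concentration not given in the record; the text of the record puts the active cut at -80%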
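Calcium fluorescence in TRPML1-DL cells induced overnight with Tet: a 110 s read after compound pin addition, then a 110 s antagonist read after challenge with 54-4 at 4 uM final (EC80).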
ClpP mod: qHTS Assay for Activators of ClpP; 340,000 compounds, 1.9% hits; AID 651965, 2013; purified B. subtilis ClpP, FRET peptide cleavage, 20 min; Potency, µM (titrated, usually from 57.5 µM), without a hit: top-dose activity change, negative = active; active = well fitted falling curve with a large enough effect; inconclusive = small, poorly fitted or top-dose-only effect; inactive = no such curve, though single readings can be large or run the other way; also: potency is read from the fitted curve at half-maximal effect; the source files actives as falling curves though it sought activators and does not explain the sign; nearly all actives have a fitted effect of over 65% in size; many hits overshoot -100%
Target sequence (P80244 whole entry, looked up): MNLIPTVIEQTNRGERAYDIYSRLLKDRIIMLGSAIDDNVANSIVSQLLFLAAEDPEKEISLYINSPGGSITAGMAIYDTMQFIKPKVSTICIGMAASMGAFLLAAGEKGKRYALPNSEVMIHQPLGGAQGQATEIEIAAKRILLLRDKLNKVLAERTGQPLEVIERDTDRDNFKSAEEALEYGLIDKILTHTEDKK
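Buffer: 100 mM Tris/HCl pH8, 100 mM KCl, 0.05% low protease BSA, 2.5% glycerol, 0.01% Tween-20. ClpP 10 microg/mL final; 20 min RT; delta FRET normalized to ADEP and DMSO controls.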
Numbers without * were called inactive; [ ] = another dose, or the depositor's remark.

For CCC(CO)NCc1cc(OC)c(OCC(=O)NCCc2ccccc2)cc1Br (configuration not stated) the results were PINK1 modulator 1.0%, Sfp PPTase inh inconclusive, Menin MLL FP FL -1.0, TRPML1 agonist 0.7, TRPV1 PAM -6, TRPML1 blocker -2 and ClpP mod -0.2%.
`CC/C(=N/Nc1ccccc1C)c1cnnc(SC)n1` gave PINK1 modulator 1.0%, Sfp PPTase inh inconclusive, Menin MLL FP FL 0.2, TRPML1 agonist -1.6, TRPV1 PAM -3, TRPML1 blocker -1 and ClpP mod -1.4%.
`C=C1C(C(=O)Nc2ccc(OC)cc2)C1C(=O)Nc1ccc(OC)cc1` (configuration not stated) gave PINK1 modulator 5.7%, Sfp PPTase inh -8%, Menin MLL FP FL -0.7, TRPML1 agonist 0.0, TRPV1 PAM -7 and TRPML1 blocker 21.
Screening CC(C)(CO)NCC(O)Cn1cc(C=O)c2ccccc21 (configuration not stated) returned PINK1 modulator -0.1%, Sfp PPTase inh 13%, Menin MLL FP FL -0.2, TRPML1 agonist 0.6, TRPV1 PAM 18 and TRPML1 blocker -5.
`CCCC[C@@H]1CNC(=S)N1CCC12CC3CC(CC(C3)C1)C2` gave PINK1 modulator 4.2%, Sfp PPTase inh 7%, Menin MLL FP FL -1.4, TRPML1 agonist 1.1, TRPV1 PAM -15, TRPML1 blocker 28 and ClpP mod -0.6%.
Cc1ccc(S(N)(=O)=O)cc1NC(=O)C(c1ccccc1)c1ccccc1 was read as PINK1 modulator -1.3%, Sfp PPTase inh 8%, Menin MLL FP FL 0.3, TRPML1 agonist -0.8, TRPV1 PAM 15 and TRPML1 blocker 25.
For CC1(C(=O)Nc2cccc3cccnc23)CCN1C(=O)Cc1ccc(Cl)cc1Cl (configuration not stated) the results were PINK1 modulator 1.8%, TRPML1 agonist 0.1 and ClpP mod -4.9%.
Screening CC(C)=CC(=O)Nc1nnc(C)s1 returned PINK1 modulator 1.5%, Sfp PPTase inh -7%, Menin MLL FP FL 2.5, TRPML1 agonist -0.4, TRPV1 PAM -25, TRPML1 blocker -12 and ClpP mod 2.1%.
CC1(C)O[C@H]2[C@@H](O1)[C@@H](C(=O)Nc1ccc(F)c(F)c1)O[C@@H]1OC(C)(C)O[C@@H]12 was read as PINK1 modulator 1.3%, TRPML1 agonist -0.1, TRPML1 blocker 8 and ClpP mod 3.0%.
Screening COc1cc(C(=O)N[C@H](C(=O)NC2CCCc3ccccc32)C(C)C)cc(OC)c1OC (some centres not stated) returned PINK1 modulator 3.8%, TRPML1 agonist 2.1, TRPML1 blocker 6 and ClpP mod 0.3%.
`Cc1cc(=O)n2c(ccc3ccccc32)c1C#N` gave PINK1 modulator -3.5%, Sfp PPTase inh 18%, Menin MLL FP FL -2.1, TRPML1 agonist -1.6, TRPV1 PAM 1, TRPML1 blocker -10 and ClpP mod 1.9%.
For Cc1ccc(S(=O)(=O)N(C)C)cc1NC(=O)c1sccc1Cl the results were PINK1 modulator 4.2%, Sfp PPTase inh -3%, Menin MLL FP FL 0.0, TRPML1 agonist -0.4, TRPV1 PAM -1 and TRPML1 blocker -6.
Screening CN(CC(=O)Nc1cccc(F)c1)C(=O)C1(c2ccccc2)CC1 returned PINK1 modulator 1.5%, TRPML1 agonist -0.1, TRPV1 PAM -7, TRPML1 blocker -8 and ClpP mod 0.1%.
Screening Cc1ccc(C(O)P(=O)(OCc2ccccc2)c2ccc(N(C)C)cc2)cc1 (configuration not stated) returned PINK1 modulator -0.3%, Sfp PPTase inh 7%, Menin MLL FP FL 2.5, TRPML1 agonist 0.6, TRPV1 PAM 4, TRPML1 blocker -22 and ClpP mod -7.7%.
CCOC(=O)N1CCN(C(=O)Nc2ccc(NC(=O)N3CCN(C(=O)OCC)CC3)cc2)CC1 was read as PINK1 modulator 1.6%, Sfp PPTase inh 9%, Menin MLL FP FL 3.4, TRPML1 agonist -0.4, TRPV1 PAM -1 and TRPML1 blocker 9.
`COc1cccc(NC(=O)CSc2nnc(-c3ccco3)c(-c3ccco3)n2)c1` gave PINK1 modulator 0.2%, Sfp PPTase inh 10µM*, Menin MLL FP FL 3.7, TRPML1 agonist -0.8, TRPV1 PAM 5 and TRPML1 blocker -2.
For COc1ccccc1CNC(=O)CN1C(=O)C(C)N(c2ccc(C)cc2)C1=O (configuration not stated) the results were PINK1 modulator -1.0%, Sfp PPTase inh 5%, Menin MLL FP FL -1.3, TRPML1 agonist -0.3, TRPV1 PAM -16, TRPML1 blocker -3 and ClpP mod -2.9%.
For CC(NC(=O)CN(c1ccc(Cl)cc1)S(C)(=O)=O)c1ccccc1 (configuration not stated) the results were PINK1 modulator -0.3%, Sfp PPTase inh 6%, Menin MLL FP FL 0.2, TRPML1 agonist -0.8, TRPV1 PAM -1, TRPML1 blocker 21 and ClpP mod -1.8%.
Screening O=C(NCCCN1CCCC1=O)c1ccc2c(c1)NC(=O)c1ccccc1S2 returned PINK1 modulator 0.9%, Sfp PPTase inh 11%, Menin MLL FP FL 3.9, TRPML1 agonist 0.5, TRPV1 PAM -4, TRPML1 blocker -1 and ClpP mod -2.5%.
CCn1c(C)cc(/C=C2/NC(=O)N(CC(=O)Nc3cccc(C)c3)C2=O)c1C was read as PINK1 modulator 0.1%, Sfp PPTase inh 6%, Menin MLL FP FL 3.0, TRPML1 agonist 1.2, TRPV1 PAM 2, TRPML1 blocker -14 and ClpP mod -2.2%.
`COc1ccc(N(CC(=O)Nc2ccc(S(=O)(=O)N3CCOCC3)cc2)S(C)(=O)=O)cc1OC` gave PINK1 modulator 0.9%, TRPML1 agonist -0.4, TRPML1 blocker -7 and ClpP mod 1.7%.
Screening COC(C)(C)[C@]12CC(O)(c3ccccc3)ON1[C@H]1CCCCC1N2O (some centres not stated) returned PINK1 modulator -2.3%, Sfp PPTase inh 12%, Menin MLL FP FL -5.6, TRPML1 agonist -0.4, TRPV1 PAM -3, TRPML1 blocker -1 and ClpP mod 1.2%.
Cc1c(C(=O)OCC(=O)NCCN2C(=O)CSC2=O)oc2c1ccc1ccccc12 was read as PINK1 modulator 4.9%, Sfp PPTase inh 6%, Menin MLL FP FL 4.7, TRPML1 agonist 0.8, TRPV1 PAM 9, TRPML1 blocker -21 and ClpP mod 32µM*.
COCCNC(=O)C1CCCN(c2ncccn2)C1 (configuration not stated) was read as PINK1 modulator 12%[38.3 µM], Sfp PPTase inh 13%, Menin MLL FP FL -0.9, TRPML1 agonist 0.5, TRPV1 PAM -5, TRPML1 blocker 6 and ClpP mod -30%.
Screening CCCCCNC(=O)C(C)NS(=O)(=O)c1ccc(OC)cc1 (configuration not stated) returned PINK1 modulator -1.0%, Sfp PPTase inh -15%, Menin MLL FP FL 2.8, TRPML1 agonist -0.4, TRPV1 PAM -4, TRPML1 blocker -12 and ClpP mod inconclusive.
`COc1ccc(OC(=O)c2cccnc2)cc1` gave PINK1 modulator 0.0%, Sfp PPTase inh 10%, Menin MLL FP FL 3.5, TRPML1 agonist -0.9, TRPV1 PAM 20, TRPML1 blocker -6 and ClpP mod -2.7%.
Screening COc1ccc(NC(=O)C(NC(C)=O)C(=O)NCc2ccccc2)cc1 (configuration not stated) returned PINK1 modulator -0.1%, Sfp PPTase inh 16%, Menin MLL FP FL 1.1, TRPML1 agonist -0.9, TRPV1 PAM 7, TRPML1 blocker 31 and ClpP mod -13%.
Screening COc1ccc(C=CC(=O)C=CC=Cc2ccccc2)cc1 returned PINK1 modulator -2.3%, TRPML1 agonist 0.9, TRPML1 blocker -5 and ClpP mod -1.6%.
`Cc1ccc(NC(=S)Nc2ncccc2C)c(C)c1` gave PINK1 modulator -4.2%[38.3 µM], Sfp PPTase inh -18%, Menin MLL FP FL 0.2, TRPML1 agonist -0.4, TRPV1 PAM 22, TRPML1 blocker -2 and ClpP mod -1.4%.
OC[C@@H](O)[C@@H](O)[C@H](O)[C@@H](O)CO was read as PINK1 modulator 0.1%, TRPV1 PAM 4 and ClpP mod 0.5%.
O=C(COc1ccc(Cl)c(Cl)c1)NN1C(=O)C2C(C1=O)C1C=CC2C12CC2 (configuration not stated) was read as PINK1 modulator -0.1%, Sfp PPTase inh 8%, Menin MLL FP FL -2.0, TRPML1 agonist 0.4, TRPV1 PAM 15, TRPML1 blocker -23 and ClpP mod -0.6%.
`CCCC1c2ccsc2CCN1C(=S)NC` (configuration not stated) gave PINK1 modulator 1.2%, Sfp PPTase inh 5%, Menin MLL FP FL 3.0, TRPML1 agonist 1.3, TRPV1 PAM 1 and TRPML1 blocker 78.
`CC(C)c1ccc(S(=O)(=O)Nc2ccc(N3CCOCC3)cc2)cc1` gave PINK1 modulator 3.7%, Sfp PPTase inh 9%, Menin MLL FP FL 2.5, TRPML1 agonist 0.3, TRPV1 PAM 8, TRPML1 blocker -16 and ClpP mod -1.1%.
Screening CCOC(=O)c1cc(C#N)c(N2CCNCC2)nc1C(F)(F)F returned PINK1 modulator -2.3%, Sfp PPTase inh 14%, Menin MLL FP FL -0.4, TRPML1 agonist 0.7, TRPV1 PAM 2 and TRPML1 blocker -7.
`COc1cccc(OCc2nn3c(=O)c(-c4ccccc4)nnc3s2)c1` gave PINK1 modulator 9.7%, Sfp PPTase inh 1%, Menin MLL FP FL 2.8, TRPML1 agonist 0.2, TRPV1 PAM 19 and TRPML1 blocker 23.
For Cc1ccc2c(CSc3nnc(C4CC4)n3N)cc(=O)oc2c1 the results were PINK1 modulator -3.8%[38.3 µM], Sfp PPTase inh 12%, Menin MLL FP FL -1.5, TRPML1 agonist 0.0, TRPV1 PAM 6, TRPML1 blocker -5 and ClpP mod -3.6%.
`CC(C)(C)c1ccc(-c2nc(SCC(=O)Nc3ccccc3F)n3[nH]c(=O)cc3n2)cc1` gave PINK1 modulator 0.1%, TRPML1 agonist 1.1, TRPML1 blocker 14 and ClpP mod -12%.
Screening CC(C)OCCCNC(=O)CN1CCN(Cc2ccc(Cl)cc2)C1=O returned PINK1 modulator -3.0%, Sfp PPTase inh 19%, Menin MLL FP FL -7.4, TRPML1 agonist -0.9, TRPV1 PAM 25, TRPML1 blocker 7 and ClpP mod -3.5%.
CC1CCN(C(=O)C2CCC(C)(C(=O)O)C2(C)C)CC1 (configuration not stated) was read as PINK1 modulator 0.6%, Sfp PPTase inh 17%, Menin MLL FP FL 5.9, TRPML1 agonist -0.1, TRPV1 PAM 1, TRPML1 blocker 1 and ClpP mod -0.5%.

Assay outcomes from PubChem BioAssay.
